# Assay outcomes (PubChem BioAssay)
# TRPML1 ag = human mucolipin-1 channel agonism. Q9GZU1. TRPML1-expressing cells, Ca2+ dye fluorescence, FDSS; host cell line not named in the record; reference of the full effect not given here. activation, % (no concentration beside the values). actives 0.12% (n = 410,000). AID 624414; in the data active = activation above about 50%; inconclusive = about 30% to 50%; inactive = below about 30%; further: 0% is about no effect; the text of the record puts the active cut at 80%
# Target sequence (Q9GZU1 whole entry, looked up): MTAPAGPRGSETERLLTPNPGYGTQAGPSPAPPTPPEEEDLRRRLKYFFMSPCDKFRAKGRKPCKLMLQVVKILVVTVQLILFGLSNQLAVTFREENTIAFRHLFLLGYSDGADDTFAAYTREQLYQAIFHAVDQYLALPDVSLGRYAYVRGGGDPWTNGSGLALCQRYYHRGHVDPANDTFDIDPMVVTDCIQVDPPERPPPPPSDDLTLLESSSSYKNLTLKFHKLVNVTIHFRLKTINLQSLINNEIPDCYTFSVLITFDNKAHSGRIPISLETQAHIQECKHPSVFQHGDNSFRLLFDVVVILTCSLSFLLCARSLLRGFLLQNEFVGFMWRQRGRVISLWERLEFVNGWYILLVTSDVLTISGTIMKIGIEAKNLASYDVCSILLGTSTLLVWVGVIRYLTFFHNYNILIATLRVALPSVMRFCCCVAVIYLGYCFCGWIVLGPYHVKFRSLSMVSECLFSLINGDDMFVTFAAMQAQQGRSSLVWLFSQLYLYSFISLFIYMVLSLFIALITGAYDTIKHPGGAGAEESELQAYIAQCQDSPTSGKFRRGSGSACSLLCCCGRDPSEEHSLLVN
#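 In this qHTS format, compounds were pin-transferred onto Ca8-dye-loaded TRPML1-DL cells induced with Tet overnight, and intracellular Ca2+ fluorescence was recorded kinetically for 110 s after a 10 s baseline. A subsequent 4uM final 54-4 (EC80) addition followed by a second 110 s read served as the antagonist phase.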
# PINK1 modulator = modulators of PINK1 expression. actives 0.2% (n = 410,000). PINK1 immunofluorescence, high-content cytometry, 24 h. Potency, µM (top dose mostly 76.6 µM), for inactives: at the highest dose activation (PINK1 increase), usual class: activators; active = well fitted activation curve with a large enough effect; inconclusive = small, poorly fitted or top-dose-only effect; inactive = flat fitted curve, though single readings scatter; cell line not stated here;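 further: potency means the concentration at half of the fitted maximal effect; % of control where 0% means no effect; nearly all actives have a fitted effect of over 65% in size; a mitochondrial uncoupler was the plate control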
#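 Readout is PINK1 immunofluorescence, quantified alongside mitochondrial, cell and nuclear markers by laser-scanning microplate cytometry. Cells from a stable line were exposed to compound titrations (5 concentrations) for 24 hours, with CCCP controls.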
# CtBP-E1A inh = CtBP/E1A binding inhibition | AlphaScreen GST-E1A/His-CtBP binding, 1536-well; hits give low values; control for the full effect not named in the record | activity change, % (test concentration not listed) | actives 0.49% (n = 340,000); in the data active means activity change below about -65%; inconclusive means about -30% to -65%; inactive means above about -30%; further: on the % scale 0 is the no-effect control and ±100 the full control effect; compound concentration not given in the record
#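 Homogeneous bead-based format: GST-tagged E1A captured on glutathione donor beads, His-tagged CtBP on nickel acceptor beads; compounds precede bead addition by 2 h at 37 °C.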
# Six1-Eya2 blk = Six1/Eya2 interaction inhibition; actives 0.56% (n = 360,000); AlphaScreen GST-Six1/His-Eya2 binding, biochemical; hits give low values; control for the full effect not named in the record; AID 651725; Q15475+O00167; activity change, % (no concentration beside the values); in the data active = activity change below about -65%; inconclusive = about -30% to -65%; inactive = above about -30%; further: on the % scale 0 is the no-effect control and ±100 the full control effect; compound concentration not given in the record
#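 Homogeneous AlphaScreen proximity assay pairing GST-Six1 with His-tagged Eya2 (added as 5X mix: 250 nM and 500 nM) in 50 mM Tris pH 8.0, 300 mM NaCl, 1 mM TCEP. Glutathione donor and nickel acceptor beads; 1 h, 37 °C, dark.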
# D2 potentiator = potentiates the human D2 dopamine receptor allosterically; DiscoveRx D2 beta-arrestin cells, luminescence, 90 min; 100% = 57 uM dopamine signal; actives 0.23% (n = 360,000); AID 624464; P14416; potentiation, % (concentration not given with the values); active = potentiation of 50% or more; inconclusive = 30% to 50%; inactive = 30% or less;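 further: compound concentration not given in the record; tested on top of an EC20 dose of dopamine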
# Target sequence (P14416 whole entry, looked up): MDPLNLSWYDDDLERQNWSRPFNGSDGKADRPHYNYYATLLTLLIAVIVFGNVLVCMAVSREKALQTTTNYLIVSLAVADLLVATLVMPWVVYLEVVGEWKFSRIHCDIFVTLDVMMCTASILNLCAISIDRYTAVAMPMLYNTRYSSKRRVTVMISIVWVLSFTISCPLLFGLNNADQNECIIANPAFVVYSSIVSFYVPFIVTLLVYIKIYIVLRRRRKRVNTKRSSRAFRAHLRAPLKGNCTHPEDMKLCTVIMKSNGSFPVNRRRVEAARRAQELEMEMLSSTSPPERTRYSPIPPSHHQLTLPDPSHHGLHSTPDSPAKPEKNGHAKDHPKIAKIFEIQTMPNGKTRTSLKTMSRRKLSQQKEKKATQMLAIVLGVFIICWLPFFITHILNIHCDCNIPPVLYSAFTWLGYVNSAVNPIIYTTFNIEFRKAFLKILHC
#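 D2 cells co-treated with compound plus 50 nM dopamine (EC20) for 90 min at 37 deg C to detect potentiation. Beta-arrestin recruitment was read as enzyme-fragment luminescence after 1 h at ambient temperature. Full response was set by 57 uM dopamine.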
# D2 agonist = activates the human D2 dopamine receptor. DiscoveRx PathHunter D2 beta-arrestin, luminescence, 90 min; 100% = 57 uM dopamine signal. activation, % (no concentration beside the values). actives 0.084% (n = 360,000). AID 624465; in the data active = activation above about 40%; inconclusive = about 15% to 40%; inactive = below about 15%; further: compound concentration not given in the record; the text of the record calls up to 30% inactive
#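 DiscoveRx PathHunter D2 beta-arrestin cells (2,100/well) attached overnight, then compound-stimulated 90 min at 37 C in HBSS/10 mM HEPES/0.1% Tween-20 buffer; beta-galactosidase complementation read by luminescence after 1 h at ambient temperature. Dopamine 57 uM final (EC100) as control.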
# Starred values were filed as active, the others as inactive; ? = inconclusive; . = no result given; [ ] = remark or other dose. Rows were taken by chance (roughly 1.3% active in at least one column).
SMILES,TRPML1 ag,PINK1 modulator,CtBP-E1A inh,Six1-Eya2 blk,D2 potentiator,D2 agonist
O=C1CCCCC1C(Nc1ccc(Cl)cc1)c1ccccc1 (configuration not stated),0.0,6.0%,-1,-10,-35,0.1
C=CCN1CCN(C(=O)CCc2ccccc2)CC1,-0.1,-0.9%,3,-2,-13,-0.3
CCC(=O)N/N=C(\C)CC(=O)Nc1ccccc1-c1ccccc1,0.6,-0.4%,0,-3,-21,-1.7
COc1cccc(C(=O)C2CCCN(Cc3cccn3-c3cccnc3)C2)c1 (configuration not stated),1.4,0.9%,-3,-15,-11,0.7
CCCn1c(=O)c(C(=O)NNC(=O)Cc2ccccc2)c(O)c2ccccc21,1.1,3.9%,2,3,-6,-3.9
CC(=O)C1=C(O)C(=O)N(Cc2ccccc2)C1c1cccs1 (configuration not stated),1.0,1.8%,3,7,-3,-3.1
COc1cc(SC)ccc1C(=O)N1CCc2ccccc21,-0.1,5.4%,3,3,-4,-5.1
N/C(COc1ccc(F)cc1)=N\NC(=O)c1cccnc1Oc1ccccc1,4.4,-1.3%,-2,0,5,-2.5
C[C@H](CO)N1C[C@H](C)[C@@H](CN(C)S(=O)(=O)c2ccc(F)cc2)Oc2c(NC(=O)c3ccncc3)cccc2C1=O,3.6,-0.4%,0,2,-4,-2.3
CCN1CCN(C(=O)CN2C(=O)COc3ccc(C)cc32)CC1,0.9,10%,5,6,-5,-5.7
COc1ccc(CNCC(=O)Nc2cc(C)nn2-c2nc(C)cc(C)n2)cc1OC,0.1,4.5%,6,2,-11,-2.9
Cc1ccccc1NC(=O)c1cccc(Cn2cc(Br)c([N+](=O)[O-])n2)c1,0.3,-1.3%,0,-2,-12,-2.0
CCn1c(SCc2nnc(-c3ccccc3)o2)nnc1-c1ccc(S(=O)(=O)N2CCCC2)cc1,-0.2,-1.4%[38.3 µM],-1,4,-1,0.0
C/C(CC(=O)Nc1cccc(C(F)(F)F)c1)=N\NC(=O)Cc1ccccc1,0.6,0.6%,16,0,-8,-2.1
O=S1(=O)CC(N2CCN(CCO)CC2)CN1Cc1cn(Cc2ccc(Cl)cc2)nn1 (configuration not stated),0.4,0.6%,0,1,.,.
COc1ccc(/C=C/C(=O)OCC(=O)c2ccc(S(=O)(=O)N3CCCCC3)cc2)cc1OC,-0.3,1.2%,1,4,-1,-2.0
COc1ccc(C(=O)Nc2ncc3c(n2)CC(C)CC3=O)cc1 (configuration not stated),0.2,2.3%,3,4,-7,-0.1
O=C(NCC1CCCN(Cc2nccs2)C1)c1cccc2ccccc12 (configuration not stated),0.2,0.0%,-1,-11,-20,-2.7
CCOc1ccc(N(C)Cc2cc(=O)oc3ccc(OC)cc23)cc1,1.4,6.2%,?,?,-8,-2.4
COc1ccc(-n2nc(C(=O)N(C)C3CCCCC3)c3ccccc3c2=O)c(OC)c1,0.6,0.2%,5,0,4,1.5
CCn1c(C)nc2cc(C(=O)NNC(=O)CCC3CCCC3)ccc21,-0.1,-0.1%,11,-8,-15,-1.0
Cc1ccc(C2(C)NC(=O)N(CC(=O)Nc3cc(S(=O)(=O)N(C)C)ccc3C)C2=O)cc1 (configuration not stated),0.3,1.1%,-13,-16,-15,-1.4
O=C(NC1CS(=O)(=O)CC1NCc1ccco1)c1ccccc1 (configuration not stated),0.0,-1.4%,5,1,-8,-4.9
CN1C(=O)/C(=C2\SC(N3CCCCCC3)=NC2=O)c2ccccc21,2.1,3.6%,-18,-1,-3,-0.6
O=C(Nn1cnnc1)c1ccccc1Cl,0.6,2.8%,2,3,0,7.6
# Continuation.
SMILES,TRPML1 ag,PINK1 modulator,CtBP-E1A inh,Six1-Eya2 blk,D2 potentiator,D2 agonist
CN(CC(=O)Nc1ccccc1Br)C(=O)CCSc1ccc(F)cc1,1.0,0.9%,-3,6,-2,-2.1
O=C(c1cc(F)c(F)cc1Cl)N1CCN(c2ncccn2)CC1,0.3,1.0%,-5,2,0,-3.9
CCOc1ccccc1NC(=O)CN1CCC(C(=O)c2ccc(F)cc2)CC1,1.8,1.5%,0,-6,-23,-2.4
COc1ccc(S(=O)(=O)N2CCCCC2)cc1NC(=O)c1ccc(OC)c(OC)c1,1.5,4.1%,-5,-20,0,-4.4
Cc1ccc(NC(=O)C(NCc2ccccn2)c2ccccc2)cc1 (configuration not stated),0.3,-0.3%,-20,-18,-4,-6.1
CC(CCc1ccccc1)NC(=O)C1CCN(S(=O)(=O)N2CCOCC2)CC1 (configuration not stated),-1.5,2.3%,-2,3,7,-7.6
CSc1nnc(-c2cc[n+](C)cc2)n1CCO,0.2,0.4%,2,12,-4,0.0
CCN(CC)S(=O)(=O)c1ccc(NC(=O)COC(=O)c2ccc(NC(=O)CC#N)cc2)cc1,0.8,0.3%,-5,2,0,0.7
Cc1cc(SCC(=O)N/N=C/c2ccc(O)c(O)c2O)c(C)cc1Br,-0.5,0.1%,?,?,57*,?
CCOC(=O)C1=C(C)N(C)C(C)=C(C(=O)OCC)C1c1ccccc1,2.4,0.5%,1,9,8,-1.4
O=C(NNC(=O)c1ccc(Cl)c(Cl)c1)c1ccncc1,1.2,-0.4%,12,0,-3,-2.4
CC(C)(C)OC(=O)N1CCC(c2c(C(=O)N3CCN(C(=O)c4ccco4)CC3)cnn2-c2ccc(F)cc2)CC1,-0.2,0.9%,-6,2,-6,1.5
CCOc1ccc(CCNC(=O)COC(=O)C2=NNC(=O)CC2)cc1OCC,-0.3,3.0%,-13,0,-3,-0.1
O=C(N/N=C/c1cccc(Oc2ccccc2)c1)c1ccc(O)cc1O,1.9,3.8%,2,-1,-2,2.9
COc1ccc(C2c3[nH]c4ccccc4c3CCN2C(=O)Cc2nonc2C)c(F)c1 (configuration not stated),-0.6,3.4%,4,-14,-12,-2.1
CC(=O)c1coc2ccc(OCC(=O)O)cc12,5.7,-3.5%[38.3 µM],3,5,-1,-3.0
COc1ccc(N2CC(C(=O)N(CC(C)C)c3c(N)n(Cc4ccccc4)c(=O)[nH]c3=O)CC2=O)c(OC)c1 (configuration not stated),1.3,-1.6%,5,-1,-15,0.2
Cc1cccc(NC(=O)CCN2C(=O)C3C4CCC(C4)C3C2=O)c1C (configuration not stated),-0.3,-1.6%[38.3 µM],2,8,1,-1.9
O=[N+]([O-])c1ccc(C2=Nc3cc(Cl)ccc3OC2)cc1,0.8,?,-15,?,-1,-0.6
CCOC(=O)Cn1c(=N)n(Cc2ccccc2F)c2ccccc21,0.3,-0.1%,-2,9,1,1.0
Cc1ccc(S(=O)(=O)N2CCN(C(=O)COC(=O)COc3ccc(Cl)cc3C)CC2)c(C)c1,1.7,-0.6%,10,10,-8,-2.8
COc1cc(CN2CCC(n3nccc3NC(=O)C3CCOC3)CC2)ccc1F (configuration not stated),-0.1,2.8%,-7,1,-23,-4.2
Cc1cc2c(cc1C)C(c1ccsc1)CC(=O)N2 (configuration not stated),0.0,4.0%,7,0,-3,-7.8
O=C(O)c1ccc(CSCc2c(F)cccc2Cl)o1,-0.6,2.9%[38.3 µM],2,0,-7,-4.1
Cc1ccc2nc(NC(=O)c3ccc(-c4nc5ccccc5s4)s3)sc2c1,-0.2,4.6%,10,3,-8,1.5

# Rewritten bar-delimited: part of the list above
SMILES | TRPML1 ag | PINK1 modulator | CtBP-E1A inh | Six1-Eya2 blk | D2 potentiator | D2 agonist
O=C(NNC(=O)c1ccc(Cl)c(Cl)c1)c1ccncc1 | 1.2 | -0.4% | 12 | 0 | -3 | -2.4
CCN(CC)S(=O)(=O)c1ccc(NC(=O)COC(=O)c2ccc(NC(=O)CC#N)cc2)cc1 | 0.8 | 0.3% | -5 | 2 | 0 | 0.7
Cc1cc(SCC(=O)N/N=C/c2ccc(O)c(O)c2O)c(C)cc1Br | -0.5 | 0.1% | ? | ? | 57* | ?
COc1cc(CN2CCC(n3nccc3NC(=O)C3CCOC3)CC2)ccc1F (configuration not stated) | -0.1 | 2.8% | -7 | 1 | -23 | -4.2
O=C(N/N=C/c1cccc(Oc2ccccc2)c1)c1ccc(O)cc1O | 1.9 | 3.8% | 2 | -1 | -2 | 2.9

# (further entries)
SMILES,TRPML1 ag,PINK1 modulator,CtBP-E1A inh,Six1-Eya2 blk,D2 potentiator,D2 agonist
Cn1c(=O)c2c(nc(N3CCN(c4ccccn4)CC3)n2Cc2ccccc2Cl)n(C)c1=O,1.1,0.3%[38.3 µM],7,1,1,-1.4
N#Cc1c2c(c(-c3ccco3)[nH]c1=O)CCCC2,-0.5,-1.9%[38.3 µM],-10,-9,-2,-1.8
O=C(CSc1nnc2ccccn12)NNC(=O)c1ccccc1F,0.4,-0.1%,-2,20,-10,0.6
O=C(O)c1ccc(S(=O)(=O)N2CCOCC2)o1,0.5,0.7%,3,13,-5,-4.8
O=C(CSc1ccc2c(c1)OCCO2)NCCc1ccc(Cl)cc1Cl,1.9,4.3%,8,0,-7,-0.8
CC(C)c1ccc(NC(=O)C2(C)Cc3c(-c4ccccc4)ccnc3O2)cc1 (configuration not stated),0.2,1.2%,1,-8,-11,-5.6
CCOC(=O)/C(=C/c1ccc(OC(=O)c2ccncc2)cc1)C(C)=O,-0.3,0.0%,0,-4,-13,-0.7
CC(Oc1ccccc1)C(=O)Nc1nnc(S(=O)(=O)Nc2ccccc2)s1 (configuration not stated),-0.2,1.2%,1,-2,1,-7.7
CCC(Oc1ccc2c(c1)C(=O)CC(C)(C)O2)C(=O)NCCN1CCCCCC1 (configuration not stated),-0.1,-0.3%,-1,-8,-28,-2.9
O=c1cc(N2CCCCCC2)[nH]c(=O)n1-c1ccccc1Cl,0.3,-1.5%,.,2,-8,1.5
COCCN(C(=O)CSc1nnc(Nc2ccc(C)cc2)s1)c1c(N)n(CC(C)C)c(=O)[nH]c1=O,0.0,0.5%,2,-13,-6,-5.4
CCn1c(/C=C/c2ccccc2[N+](=O)[O-])nc2ccccc2c1=O,1.4,1.4%,-28,10,2,-4.1
CC(C)c1ccc(NC(=O)Nc2nc(C(N)C(C)C)cs2)cc1 (configuration not stated),0.1,-1.1%,-24,-4,-5,-1.5
Cc1ccccc1NS(=O)(=O)c1cc(C(=O)Nc2cccnc2)ccc1C,-0.4,3.1%,-2,-1,6,4.4
Cn1c(O)c(C=Nc2ccc(N3CCOCC3)cc2)c(=O)n(C)c1=S,4.6,7.1%,2,11,1,-1.1
Cc1ccc(N(Cc2cc(=O)[nH]c3ccccc23)C(=O)CCl)cc1,-0.6,-0.1%,.,-2,-21,-12
CN(Cc1ccccc1)C1=CC(=[N+]2CCCCC2)CC(C)(C)C1,0.0,?,-10,6,-15,-0.4
C=CCSc1nnc(CNC(=O)c2ccc(Cl)cc2)n1CC,-0.6,0.2%,2,4,-21,-0.7
CCc1nc2ccc(C(=O)N3CCN(c4ccccc4)CC3)cn2c1N(C)CCC(C)C,-0.5,2.4%,-5,-3,-3,-3.0
CC(C)(C)OC(=O)N1CCC[C@@H]1CO,0.4,-0.6%,8,5,-9,5.6
CCOC(=O)c1ccc(-c2ccc(-c3cc(=O)oc4cc(OC)c(OC)c(OC)c34)cc2)cc1,-0.4,0.2%,4,1,4,-2.3
